Screening results deposited in PubChem BioAssay by Emory University Molecular Libraries Screening Center.
Measles inh: inhibitors of measles virus growth in cells, primary screen, measles RdRp inhibitor project, cell-based, single point, HTS | infected Vero cells, GFP fluorescence, 64 h; stronger effect = lower value | z-score (test concentration not listed) | 33,000 compounds, 0.1% hits;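 active means z-score under -3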;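 further: score is relative to mean and SD of the compound wells of a plate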
* marks the source's active call; other numbers are inactive results.

Measles inh,Structure
0,CCOc1cccc(NC(=O)C2CC(=O)N(Cc3cccs3)C(=Nc3ccc(OC)cc3)S2)c1 (centres undefined)
0.02,O=C1N(c2cccc(C(F)(F)F)c2)C2CS(=O)(=O)CC2N1c1ccccc1Cl (centres undefined)
0.03,CCN1C(=O)C(O)(CC(=O)c2cccc(OC)c2)c2ccccc21 (centres undefined)
1.6,CC(=O)Nc1cccc(Oc2ccc3c(c2)C(=O)N(c2ccc(C)cc2C)C3=O)c1
-1.6,CN1CCN(Cc2cc(Br)c(O)c3ncccc23)CC1
-0.54,Cn1c2c(c(=O)n(C)c1=O)CN(Cc1ccco1)CN2
1.8,O=C1CN(C(=O)CCC2CCCC2)C(c2ccc(F)cc2)c2cc(Cl)ccc2N1 (centres undefined)
-0.44,CCCCC(CC)c1nnc(NC(=O)c2ccccc2Br)s1 (centres undefined)
-1,Cc1cc(N2CCCCC2)nc2ccc(NC(=O)CCC(=O)NCc3ccc(F)cc3)cc12
-0.67,CCSc1nnc2c(n1)OC(c1cc(OC)c(OC)cc1Br)Nc1ccccc1-2 (centres undefined)
0.06,COc1ccc2c(c1)CCc1c(C(=O)Nc3cccc(C(C)=O)c3)noc1-2
0.33,COc1ccc(NC(=O)C2=C(C)NC3=C(C(=O)CC(c4ccc(OC)c(OC)c4)C3)C2c2ccc(C)o2)cc1 (centres undefined)
0.67,CCc1nc2sc3c(SCC(N)=O)ncnc3c2c2c1CCCC2
-0.97,CCCCCc1c(C)c2ccc(OC(C)=O)cc2oc1=O
-0.11,O=c1oc2c(ccc3ccccc32)c2c1SC(C(F)(F)F)C2 (centres undefined)
-0.38,CCOC(=O)C(C)Sc1nc2c(cnn2-c2ccc(F)cc2)c(=O)[nH]1 (centres undefined)
-2.1,O=c1c2cn[nH]c2nc(SCc2cccc([N+](=O)[O-])c2)n1-c1ccccc1Br
1.5,CCOc1ccc2nc(NC(=O)c3ccc(Cl)s3)sc2c1
0.05,CS(=O)(=O)Nc1ccc(C2=NN(C(=O)c3cccs3)C(c3cccc(F)c3)C2)cc1 (centres undefined)
-0.15,COc1cc(N=c2oc3c(C)ncc(CO)c3cc2C(=O)Nc2cccc(C(F)(F)F)c2)cc(OC)c1OC
2,CCOc1ccc(C2C(C(=O)OC)=CN(C(C)C)C=C2C(=O)OC)cc1
-0.14,CCOC(=O)C1C(c2ccc(C)o2)NC(=S)NC1(O)C(F)(F)F (centres undefined)
0.39,Cc1ccc(C(=O)N2CC(=O)Nc3ccc(Cl)cc3C2c2ccc(F)cc2)cc1C (centres undefined)
0.79,CCOC(=O)CSc1nc(-c2ccco2)nc2c1c(=O)n(C)c(=O)n2C
0.32,Cc1ccc(C(=O)CSc2nc(-c3cccnc3)ccc2C#N)cc1
0.41,O=C(Nc1ccc(I)cc1)c1cccc(C(=O)Nc2ccc(I)cc2)c1
-0.49,Cc1cccn2c(Nc3ccc4c(c3)OCCO4)c(-c3ccsc3)nc12
0.78,CC(C)(C)c1ccc(C(=O)Nc2cc(C(=O)Nc3ccc4c(c3)OCCO4)ccc2N2CC3CC(C2)c2cccc(=O)n2C3)cc1 (centres undefined)
0.04,CCOc1ccc(-c2csc(NC(=O)c3cncc(Br)c3)n2)cc1
-0.08,O=C1CCCCCN1CP(=O)(O)CN1CCOCC1
-0.86,CN(C)C(=O)CSc1nnnn1-c1cccc2ccccc12
0.88,O=C(c1cccc(S(=O)(=O)NC2CCCC2)c1)N1CCCc2ccccc21
-0.48,CCOc1ccc(NC(=O)c2ccc(F)c(S(=O)(=O)NC3CCCCC3)c2)cc1
0.54,Cc1nnc(SCc2ccc(C#N)cc2)[nH]c1=O
-1,COc1ccc(-c2cn3c4c(=O)n(C)c(=O)n(C)c4nc3n2CCc2ccc(OC)c(OC)c2)cc1
2.2,COC(=O)C1=C(C)N(C)C(=O)NC1c1cccc([N+](=O)[O-])c1 (centres undefined)
0.4,O=C(C1CC1)N1CCc2cc(S(=O)(=O)Nc3cccc(F)c3)ccc21
-1.5,CCc1nnc(NS(=O)(=O)c2ccc(NC(=O)c3cccc(F)c3)cc2)s1
0.09,COc1ccc2cc(C#N)c(NC(C)C)nc2c1
-0.61,CC(C)(C)NCC(O)COc1c(Br)ccc2c1sc1nc3n(c(=O)c12)CCCCC3 (centres undefined)
-2.4,O=C(CCS(=O)(=O)Cc1ccccc1Cl)NCc1ccc(F)cc1
0.23,COC(=O)C(NC(C)=O)(Nc1ccc(Cl)cn1)C(F)(F)F (centres undefined)
1.6,O=C(CSc1nnc2c3ccccc3n(Cc3ccccc3)c2n1)c1ccccc1
0.77,O=C(COC(=O)c1ccc(Cl)c([N+](=O)[O-])c1)c1ccc(Br)cc1
0.55,O=C(c1ccc2c(c1)OCO2)N1CCN=C1SCc1ccc(Cl)cc1
0.82,Cc1ccc(S(=O)(=O)N(CC(=O)NCCc2ccc(Cl)cc2)c2ccccc2C)cc1
-0.09,Cc1ccc(NC(=O)Cn2nc(-c3ccc(Cl)cc3)c3ccccc3c2=O)cc1
-1.1,COC(=O)c1nnn(CC(=O)Nc2ccccc2OC)c1C(=O)OC
-0.39,O=C(Nc1ccc(S(=O)(=O)N2CCOCC2)cc1)C1c2ccccc2Oc2ccccc21
-0.23,Cc1ccc(S(=O)(=O)NC2c3cccc4cccc(c34)C2Sc2ncccn2)cc1 (centres undefined)

Three structures out of the list, ordered by molecular weight, low to high.
Measles inh,Structure
-0.44,CCCCC(CC)c1nnc(NC(=O)c2ccccc2Br)s1 (centres undefined)
0.39,Cc1ccc(C(=O)N2CC(=O)Nc3ccc(Cl)cc3C2c2ccc(F)cc2)cc1C (centres undefined)
-0.61,CC(C)(C)NCC(O)COc1c(Br)ccc2c1sc1nc3n(c(=O)c12)CCCCC3 (centres undefined)

Later entries:
Measles inh,Structure
-1.7,CCCCOc1ccc(NC(=O)C2CCCCC2C(=O)O)cc1 (centres undefined)
0.87,Cn1c(CC(O)C(Cl)(Cl)Cl)nc2ccccc21 (centres undefined)
-1.4,CCN1CCN(C(=O)c2sc3nc(C)nc(N(C)c4ccc(C(C)C)cc4)c3c2C)CC1
0.28,CC(NC(=O)Cn1nc(-c2ccc(Cl)cc2)c2ccccc2c1=O)c1ccccc1 (centres undefined)
0.16,Cc1cc(C)nc(Nc2ncc(O)n2-c2ccc(C)c(C)c2)n1
-2.1,COc1ccc(-n2c3c(cc(C(=O)Nc4ccc5c(c4)C(=O)NC5=O)c2=O)C(=O)CCC3)cc1
0.94,Cc1ccc(-c2nnc(Nc3ccc(S(N)(=O)=O)cc3)c3ccccc23)cc1S(=O)(=O)N1CCCCC1
0.99,Cc1ccccc1CNC(=O)c1ccc(N(C)S(=O)(=O)c2ccccc2)cc1
0.88,COc1ccccc1N1CCN(C(=O)c2ccc3c(=O)n(CCc4ccccc4)c(=O)[nH]c3c2)CC1
-0.01,COc1cccc(C2C(C(C)=O)=C(O)C(=O)N2Cc2ccco2)c1 (centres undefined)
0.13,Cc1ccc(CSc2ccc(C(=O)N3CCN(C)CC3)cc2[N+](=O)[O-])cc1
2.5,Cc1ccc(S(=O)(=O)NCc2ccc(C(=O)NCCc3ccc(Cl)cc3)cc2)cc1
0.8,Cc1onc(-c2ccccc2Cl)c1C(=O)NC(Cc1ccccc1)C(=O)O (centres undefined)
-0.52,Nc1ncn(C(=O)c2ccco2)n1
0.2,Cc1cccc(CSC2=NCCN2C(=O)c2ccccc2Br)c1
-0.25,O=C(OCCCN1C(=O)c2cccc3c(N4CCOCC4)ccc(c23)C1=O)c1cccc([N+](=O)[O-])c1
0.88,CCOc1ccc2c(c1)sc1nc(-c3cc4c(ccc5ccccc54)oc3=O)cn12
-0.05,COc1ccc(NC(=O)c2sc(=S)n(-c3ccccc3)c2N)c(OC)c1
-0.12,COc1ccc(S(=O)(=O)NCCc2ccccc2)c2ccccc12
0.04,O=C(Nc1ccc(Cl)c(-c2nc3cc(Cl)ccc3o2)c1)c1ccccc1[N+](=O)[O-]
-1.4,CCCS(=O)(=O)N1CCN(C(=O)c2ccc([N+](=O)[O-])cc2)CC1
-1.3,Cc1nn(CCCC(=O)Nc2cc(Oc3ccc4oc5c(c4c3)CCCC5)cc([N+](=O)[O-])c2)c(C)c1[N+](=O)[O-]
0.64,O=C(CCCCCN1C(=O)c2ccccc2C1=O)Nc1ccccc1
1.1,CC(C)Cn1cc(C(=O)NC2CCCCCC2)c2c3ccccc3n(C)c2c1=O
-0.81,O=C(Nc1cccc2ccccc12)c1cc2ccccc2o1
-0.18,CC1CC(C)CN(S(=O)(=O)N2CCCC(C(=O)NCCCN3CCOCC3)C2)C1 (centres undefined)
0.75,CCOC(=O)c1sc2nc(N)c(C#N)c(-c3ccc(OCC)cc3)c2c1N
-1.3,Nc1ccc2nc(C=Cc3ccc(Cl)cc3)[nH]c2c1
1,Cc1cc(=O)oc(C)c1C(=O)NCC1CCCO1 (centres undefined)
-1.4,O=C(COc1ccc(C23CC4CC(CC(C4)C2)C3)cc1)Nc1cccc([N+](=O)[O-])c1
0.35,COc1cccc2c1OC1(C)CC2N(C(=O)c2ccco2)C(=S)N1c1ccc(F)cc1 (centres undefined)
0.73,Cc1ccc(-c2nnc(Nc3cccc(Cl)c3)c3ccccc23)cc1S(=O)(=O)NCCO
2.4,O=C(Nc1ccc(F)cc1)C1CC(=O)N(Cc2ccccc2)C(=Nc2ccccc2)S1 (centres undefined)
-0.12,CC1=C(C(=O)Nc2ccc(F)cc2)C(c2cccnc2)C2=C(CC(c3ccccc3)CC2=O)N1 (centres undefined)
0.09,Brc1ccc(Nc2nc(-c3cccs3)cs2)cc1
0.28,Cc1n[nH]c(C)c1S(=O)(=O)Nc1ccc2c(c1)OCCO2
0.17,O=C1C2C(c3ccccc3)OC3(C(=O)c4ccccc4C3=O)C2C(=O)N1c1cc(C(F)(F)F)ccc1Cl (centres undefined)
-0.34,NC(=O)Cn1c(=O)n(Cc2ccccc2)c(=O)c2cc(Cl)ccc21
-0.99,Cc1cccn2cc(-c3cccc(NC(=O)c4cccnc4)c3)nc12
0.98,Cc1sc2ncn(CC(=O)NC3CCCC(C)C3C)c(=O)c2c1S(=O)(=O)N1CCC(C)CC1 (centres undefined)
-0.75,CCOc1ccccc1N(C)C(=O)C1CC(=O)N(c2ccc(OC)cc2)C1c1ccc(OC)cc1 (centres undefined)
0.25,O=C1C(=O)N(CCO)C(c2ccccc2F)/C1=C(\O)c1ccc(Br)cc1 (centres undefined)
0.66,Clc1cccc(C=Cc2nc3cc4ccccc4cc3o2)c1
-0.34,Cc1cc(NC(=O)c2ccc(F)cc2)n(-c2nc3ccccc3[nH]2)n1
-0.34,Cc1ccc(-c2sc3nc(-c4ccccc4)ccc3c2N)c(C)c1
0.82,CN(C(=O)Cc1c(C(=O)O)[nH]c2ccccc12)c1ccc(Cl)cc1
-0.89,CCOc1ccc(C2=NC(c3cccc(OC)c3)NC(c3cccc(OCC)c3O)C2)cc1 (centres undefined)
-0.51,O=C(Nc1cccc(F)c1)C1CCCN(S(=O)(=O)c2cccs2)C1 (centres undefined)
-0.24,CCn1cc(CNC(=O)c2cc(-c3ccccc3)nc3ccccc23)c(C)n1
0.16,O=C(NCc1cccc(Cl)c1)c1ccc(N2CC3CC(C2)c2cccc(=O)n2C3)c(NC(=O)c2ccc(Br)o2)c1 (centres undefined)

Later entries.
Measles inh,Structure
-0.18,CCCOC(=O)c1ccc2c(c1)C(=O)N(c1cccc3ccccc13)C2=O
1.2,COc1ccc(OC)c(NC(=O)Cc2ccccc2[N+](=O)[O-])c1
-0.42,CCNC(=O)C1CC(=O)N(c2ccc(C)cc2)C1 (centres undefined)
-0.76,S=c1[nH]nc(-c2cc(-c3ccccc3)nc3ccccc23)o1
0.29,CCC(=O)N1CCc2cc(Br)cc(S(=O)(=O)CCC(=O)N3CCN(c4ccccc4OC)CC3)c21
-0.73,O=C(C1c2ccccc2C(=O)N2CCc3ccccc3C12)N1CCCCCC1 (centres undefined)
-0.28,COc1cc(C2Nc3ccccc3NC3=C2C(=O)CC(c2cc(OC)c(OC)c(OC)c2)C3)cc(Br)c1O (centres undefined)
1.2,O=C(Nc1ccc(Br)cc1)c1ccc(-c2ccccc2)cc1
0.34,COc1ccc(NC2=C(Cl)C(=O)N(c3ccc(C)cc3C)C2=O)c(OC)c1
1.4,Cc1ccc(-n2c(N)c(C(=O)Nc3ccccc3)sc2=S)c(C)c1
-0.92,Oc1ccc(N=Cc2ccc(OCc3ccccc3)cc2)cc1
1.2,Cc1ccc([N+](=O)[O-])cc1N=Cc1c[nH]c2ccccc12
0.8,COC(=O)c1ccc(-c2csc(NC(=O)c3cc(=O)c4ccccc4o3)n2)cc1
-0.06,N#Cc1cn(CC(=O)N2CCc3ccccc3C2)c2ccccc12
1,Cc1ccc(NC(=O)C(C)N2C(=O)c3ccccc3C2=O)cc1 (centres undefined)
-0.04,Oc1ccccc1-c1nc2ccccc2nc1-c1ccccc1

By substructure, the compounds so far containing bromine.
Measles inh,Structure
-1.6,CN1CCN(Cc2cc(Br)c(O)c3ncccc23)CC1
-0.44,CCCCC(CC)c1nnc(NC(=O)c2ccccc2Br)s1 (centres undefined)
-0.67,CCSc1nnc2c(n1)OC(c1cc(OC)c(OC)cc1Br)Nc1ccccc1-2 (centres undefined)
-2.1,O=c1c2cn[nH]c2nc(SCc2cccc([N+](=O)[O-])c2)n1-c1ccccc1Br
0.04,CCOc1ccc(-c2csc(NC(=O)c3cncc(Br)c3)n2)cc1
-0.61,CC(C)(C)NCC(O)COc1c(Br)ccc2c1sc1nc3n(c(=O)c12)CCCCC3 (centres undefined)
0.77,O=C(COC(=O)c1ccc(Cl)c([N+](=O)[O-])c1)c1ccc(Br)cc1
0.2,Cc1cccc(CSC2=NCCN2C(=O)c2ccccc2Br)c1
0.09,Brc1ccc(Nc2nc(-c3cccs3)cs2)cc1
0.25,O=C1C(=O)N(CCO)C(c2ccccc2F)/C1=C(\O)c1ccc(Br)cc1 (centres undefined)
0.16,O=C(NCc1cccc(Cl)c1)c1ccc(N2CC3CC(C2)c2cccc(=O)n2C3)c(NC(=O)c2ccc(Br)o2)c1 (centres undefined)
0.29,CCC(=O)N1CCc2cc(Br)cc(S(=O)(=O)CCC(=O)N3CCN(c4ccccc4OC)CC3)c21
-0.28,COc1cc(C2Nc3ccccc3NC3=C2C(=O)CC(c2cc(OC)c(OC)c(OC)c2)C3)cc(Br)c1O (centres undefined)
1.2,O=C(Nc1ccc(Br)cc1)c1ccc(-c2ccccc2)cc1

An excerpt; the hit share may differ from the screen's.
